# Bioassay records as filed in PubChem.
# VACV Venus inh: vaccinia inhibition (Venus reporter); Vaccinia virus Venus reporter expression, fluorescence; Potency, µM (titrated, usually from 36.5 µM), for inactives: top-dose activity change, negative = inhibition, hits mostly inhibitors; actives 0.46% (n = 330,000); AID 720580; active means well fitted inhibition curve with a large enough effect; inconclusive means small, poorly fitted or top-dose-only effect; inactive means no such curve, though single readings can be large or run the other way; tested in A549 cells; further: nearly all actives have a fitted effect of over 30% in size; inactives centre near -10
# VACV mCherry inh: vaccinia inhibition (mCherry reporter); actives 0.63% (n = 310,000); Potency, µM (series often up to 36.5 µM), inactives show at the top dose activity change, negative = inhibition, actives largely listed as inhibitors; Vaccinia virus mCherry reporter infection, fluorescence; about a quarter of the inactives have no number; active = well fitted inhibition curve with a large enough effect; inconclusive = small, poorly fitted or top-dose-only effect; inactive = no such curve, though single readings can be large or run the other way; tested in A549 cells; further: nearly all actives have a fitted effect of over 35% in size; inactives centre near -10
# An asterisk follows results filed as active; i = inactive; ? = inconclusive; · = no result given; [ ] = remark or other dose. On the % scale 0 is the no-effect control and ±100 the full control effect; potency means the concentration at half of the fitted maximal effect. No enrichment for hits. Share with any hit: about 0.86%.
SMILES,VACV Venus inh,VACV mCherry inh
Cc1occc1C(=O)N/N=C/C=C/c1ccccc1[N+](=O)[O-],-16%,i
COc1ccccc1CNC(=S)NC1CCCCC1,-26%,-13%
COc1ccc(Cl)cc1NC(=O)C[n+]1ccccc1,-21%,i
CCOC(=O)C1(Cc2ccccc2C(F)(F)F)CCN(C(=O)c2cc(C)n(C)n2)CC1,-7%,i
Cc1cccc(N2CCN(C(=O)c3cnc(N4CCCC4)nc3C)CC2)c1C,-28%,-19%
CCCCc1c(-c2ccccc2F)ncn1CCc1ccccc1OC,1%,-8%
C=CCn1c(SCC(=O)c2cccs2)nc2sc(C)c(C)c2c1=O,14%,?
COc1cccc(CNC(=O)c2ccc(C)c(S(=O)(=O)N3CCOCC3)c2)c1,-12%,i
N=C1C(c2nc3ccccc3c(=O)[nH]2)=C(O)CN1CCc1ccccc1,?,-9%
COC(=O)C1=C(N)Oc2c(oc(CO)cc2=O)C1c1ccccc1F (stereo not given),-13%,i
CCN(CC(=O)NCc1cccs1)S(=O)(=O)c1ccc(F)c(F)c1F,?,?
Oc1ccc2ccc(Cl)cc2c1,-15%,-1%
c1cc2c(c(NCc3ccncc3)c1)CCCC2,-23%,?
COc1ccc(S(=O)(=O)NCc2ccccn2)cc1NC(=O)c1ccc(Cl)cc1,-26%,?
Cc1nnc(SCC(=O)Nc2cc(S(=O)(=O)N3CCOCC3)ccc2C)s1,-18%,i
Cc1cc(C)c2cc3c(N)c(C(=O)N4CCOCC4)sc3nc2c1,-7%,-14%
CCOC(=O)c1sc(NC(=O)c2ccccc2OC)nc1C,-16%,-19%
COC(=O)c1cc2n(n1)CCN(Cc1ccc(OC)cc1)C2=O,-25%,·
Cc1ccc(NC(=O)COCc2cc(-c3cccs3)on2)cc1Cl,-14%,-11%
Cc1c(/C=C(\C#N)C(=O)NCc2ccccc2)cc(C#N)n1C,-7%,8%
COc1ccc(CNC(=O)Nc2nnc([C@H]3C[C@H](O)[C@@H](CO)O3)s2)cc1,3%,-2%
O=[N+]([O-])c1cc(Cl)ccc1N1CCCCC1,-6%,-24%
CN(C(=O)c1cccc(NC(=O)Cc2ccc(NC(=O)C3CCCN(C(=O)CCc4ccccc4)C3)cc2)c1)C1CCCCC1 (stereo not given),?,13µM*
O=C(CCN1C(=O)C2(OCCO2)c2ccccc21)c1ccccc1,-12%,-10%
Cc1cc(=O)n(C)c(=O)n1CCCCCCN1CCCC1,-18%,-27%
# (listing goes on)
SMILES,VACV Venus inh,VACV mCherry inh
Cn1cccc1C(C#N)c1cccc(F)c1C#N (stereo not given),-14%,-20%
Cc1ccc(C(=O)NNC(=O)C2CCN(Cc3ccccc3)CC2)cc1,-10%,·
CC(OC(=O)C1COc2ccccc2O1)C(=O)c1ccccc1 (stereo not given),2%,i
Cc1ccsc1/C=C1/SC(=O)N(CC(=O)N2CCCC2)C1=O,-8%,-13%
COc1ccc(-n2c(SC3CCOC3=O)nc3ccccc3c2=O)cc1OC (stereo not given),-8%,i
Cc1ccc(Cn2ccn(Cc3cccc(C(F)(F)F)c3)c(=O)c2=O)cc1,-5%,0%
O=C(Nc1ccc(OC(F)(F)F)cc1)c1cc(-c2ccc(Cl)cc2)on1,2%,-10%
Cc1cc(C)cc(Nc2cc(C(=O)NCCCN(C)C3CCCCC3)c3ccccc3n2)c1,-9%[7.34 µM],-8%[7.34 µM]
Cc1nnc(SCc2ccccn2)n(N)c1=O,-9%,-12%
O=C1NC(=Nc2ccccc2Cl)S/C1=C\c1cccc([N+](=O)[O-])c1O,-6%,i
CCOC(=O)C1=NOC2C(=O)N(c3ccc(Cl)cc3Cl)C(=O)C12 (stereo not given),-7%,3%
Cn1c(=O)c2c(nc(NCC3CCCO3)n2C)n(C)c1=O (stereo not given),-7%,-13%
COC1OC2COC(c3ccccc3)OC2C2OC(c3ccccc3)OC12 (stereo not given),-14%,-22%
O=C(CCC(=O)N(c1cccc(F)c1)C(C(=O)NC1CCCC1)c1ccncc1)Nc1cccnc1 (stereo not given),-13%,-12%
Cc1cccc(CC2CC(=O)N(c3nc4ccccc4s3)C2=O)c1 (stereo not given),-1%,i
COc1ccc(S(=O)(=O)N2CCN(CC(=O)N3CCNC3=O)CC2)cc1OC,-15%,i
CN1CCN(C(CNC(=O)C(=O)Nc2ccc(Cl)cc2)c2cccnc2)CC1 (stereo not given),-3%,7%
COc1ccc(CC(=O)N2CCc3cc(OC)c(OC)cc3C2C)c(OC)c1 (stereo not given),-19%,-8%
CCOc1ccc2oc(C(=O)N3CC(C)OC(C)C3)c(C)c2c1 (stereo not given),-5%,-19%
Cc1[nH]c(=O)[nH]c(=O)c1S(=O)(=O)Nc1ccc(F)cc1Cl,-3%,-8%
CC(=O)N1CCN=C1SCc1ccccc1F,-12%,i
O=C(Nc1ccncc1)c1cc(S(=O)(=O)N2CCOCC2)ccc1Cl,-14%,i
CCOC(=O)c1ccc2c(c1)N(Cc1cccc(OC)c1)C(=O)c1ccccc1S2(=O)=O,-8%,-10%
CCCCOc1ccc(C2c3c(oc4ccccc4c3=O)C(=O)N2c2nc(C)c(C(=O)OCC)s2)cc1OC (stereo not given),-1%,-9%
CC(=O)/C=C/c1ccc2ccccc2n1,?,·

# In the list so far, two have a cyano group:
SMILES,VACV Venus inh,VACV mCherry inh
Cc1c(/C=C(\C#N)C(=O)NCc2ccccc2)cc(C#N)n1C,-7%,8%
Cn1cccc1C(C#N)c1cccc(F)c1C#N (stereo not given),-14%,-20%

# New compounds follow:
SMILES,VACV Venus inh,VACV mCherry inh
CCO/C(C)=N/Oc1cccc(N(C)C)c1,8%,2%
Cc1cc(C)c(OCC(=O)Nc2cc(C(=O)O)cc(C(=O)O)c2)cc1C,0%,i
C=C(C)[C@@H]1CC=C(CN2CCN(Cc3ccccc3)CC2)CC1,0%,?
CCNC(=O)C1CCCN(C(=O)c2ccc(C#N)cc2)CC1 (stereo not given),-4%,19%
CC(=O)Nc1ccc(C(=O)OC2CCCCC2=O)cc1 (stereo not given),?,-13%
CC(C)(CN1CCCN(CC(C)(C)C(=O)O)C1=O)C(=O)O,-11%,-6%
CN(C)S(=O)(=O)N1CCC(Oc2cccc(C(=O)NC3CCCCCC3)c2)CC1,-23%,?
Cc1ccc(CNS(=O)(=O)c2cn(C)c(=O)n(C)c2=O)cc1,-6%,i
COc1ccc(CNC(=O)C2CCN(S(=O)(=O)c3ccc4c(c3)N(C(C)=O)CCO4)CC2)cc1,-13%,i
Cc1cc(C)c(OCC(=O)N/N=C/c2ccco2)c(C)c1,-27%,-21%
Cn1cc(Br)c(C(=O)Nc2c(F)c(F)c(F)c(F)c2F)n1,-7%,-8%
COc1ccc2[nH]c3c(c2c1)CCN1C(=O)C(CC(=O)NCCC2=CCCCC2)C[C@H](C(=O)N2CCCCC2)[C@@]31CCc1ccccc1 (stereo not given in full),?,-20%
C[C@@H]1C(=O)O[C@H]2CC34[C@H]5C[C@@H](C(C)(C)C)[C@]36[C@@H](OC(=O)[C@@H]6O)O[C@@]4(C(=O)O5)[C@]21O (stereo not given in full),-9%,i
CC(C)OC(=O)N(C)C[C@@H]1OCc2cnnn2CCCC(=O)N([C@@H](C)CO)C[C@@H]1C,-8%,-9%
O=C(CSc1nc2c(cnn2-c2ccc(F)cc2)c(=O)[nH]1)N1CCCCCC1,1%,2%
CC(C)(C)NC(=O)CN(C(=O)c1snc(C(=O)NC2CCCCC2)c1N)c1ccccc1F,-7%,i
Nc1nnc(SCn2nnc3ccccc3c2=O)s1,-9%,-15%
COc1cc(Br)cc(/C=N/NC(=O)Cc2ccccc2)c1O,?,?
O=C(NCCN1CCOCC1)c1ccc2c(c1)N(Cc1ccc(F)cc1)C(=O)CS2,-17%,i
Cc1ccc(C(=O)N/C(=C\Cl)P(=O)(c2ccccc2)c2ccccc2)cc1,-2%,-3%
Cc1cccc(Cc2c(C)nc3nc(SCC(=O)NCc4ccccc4)nn3c2C)c1,-29%,-24%
O=C(OC(C(=O)Nc1cc(Cl)cc(Cl)c1)c1ccccc1)C1=COCCO1 (stereo not given),-16%,-14%
CNc1ccccc1-n1ccc(-c2ccccc2)n1,-3%,-20%
O=C(C1CCN(Cc2ccc(Cl)cc2)CC1)N1CCN(C(c2ccccc2)c2ccccc2)CC1,?,?
Cc1cccc(C)c1OCc1nc2ccccc2c(=O)n1/N=C/c1c[nH]c2ccccc12,?,?

# Arranged by molar mass (ascending): part of the list above.
SMILES,VACV Venus inh,VACV mCherry inh
Cn1cc(Br)c(C(=O)Nc2c(F)c(F)c(F)c(F)c2F)n1,-7%,-8%
Cc1ccc(C(=O)N/C(=C\Cl)P(=O)(c2ccccc2)c2ccccc2)cc1,-2%,-3%
CC(C)(C)NC(=O)CN(C(=O)c1snc(C(=O)NC2CCCCC2)c1N)c1ccccc1F,-7%,i

# Following part.
SMILES,VACV Venus inh,VACV mCherry inh
Cc1cccc(N2CCN(C(c3ccccc3)c3nnc(-c4ccccc4F)o3)CC2)c1C (stereo not given),-11%,-12%
Nc1nc(SCC(=O)Nc2ccc([N+](=O)[O-])cc2)n[nH]1,5%,-23%
Cc1nn(Cc2ccccc2)c(Cl)c1C(=O)OCc1nnc(-c2ccc(Cl)cc2)o1,-35%,·
c1ccc2c(N3CCCCC3)nc(N3CCCCC3)nc2c1,0%,-13%
O=C(/C=C/c1ccccc1F)N1CCN(c2ccccn2)CC1,-6%,i
Cc1cccc(CCNC(=O)c2nnc(Cc3ccc(Cl)cc3)o2)c1,-19%,-8%
COc1ccc2occ(CC(=O)Nc3ccc(S(=O)(=O)Nc4nc(C)cc(C)n4)cc3)c2c1,0%,-2%
CCCCC(=O)NC(=S)Nc1cccc(Cl)c1N1CCCCC1,-16%,i
Clc1ccc(-c2cn3cc(Br)ccc3n2)cc1Cl,-10%,8%
OC1(CN2CCOCC2)C2CC3CC(C2)CC1C3 (stereo not given),-8%,-14%
COC/C=C/C1=CC(=O)C[C@H](c2ccc3c(c2)OCO3)C1,-7%,-1%
CN(C)Cc1ccccc1CNC(=O)c1ccc(Cl)c(S(=O)(=O)NC2CC2)c1,-3%,-2%
CC(OC(=O)c1ccc(-n2cnnn2)cc1)C(=O)NCc1ccccc1 (stereo not given),-2%,-7%
CCCNc1ccc(-c2nc(-c3ccco3)no2)cc1[N+](=O)[O-],?,-25%
COc1ccc(NC(=O)Nc2ccc3c(c2)CCC3)cc1,-2%,-8%
Cc1cc(C(=O)OCC(=O)NCc2ccco2)c(C)n1-c1ccc(F)cc1,?,·
Cc1nn(Cc2ccccc2)c(C)c1C(=O)OCC(=O)NC1CCS(=O)(=O)C1 (stereo not given),-3%,-10%
CCCCn1c(N)c(N(CC)C(=O)CSCC(=O)Nc2ccc(OC)cc2)c(=O)[nH]c1=O,-21%,-3%
COc1ccc(OC)c(NC(=O)Cn2ccn(-c3ccc(F)cc3)c(=O)c2=O)c1,-5%,-6%
COc1ccc(-c2cc(C(=O)N3CCCCC3)c3ccccc3n2)cc1OC,-4%,-15%
N#Cc1ccccc1NS(=O)(=O)c1ccc(N2CCCCS2(=O)=O)cc1,-1%,3%
CCOC(=O)C1C(=O)C=C(Nc2ccccc2F)CC1c1ccccc1 (stereo not given),1%,-15%
Cc1ccc(S(=O)(=O)N2CCC(=O)N([C@H](COCc3ccc(Cl)cc3Cl)Cc3ccccc3)CC2)cc1,-11%,-3%
CCN(C(=O)COC(=O)CNC(=O)c1ccc(F)cc1)C1CCS(=O)(=O)C1 (stereo not given),-3%,0%
Cc1cccc(-n2c(C)cc(/C=N/NC(=O)c3ccc(CN4CCOCC4)cc3)c2C)c1,-7%,-20%
# More structures.
SMILES,VACV Venus inh,VACV mCherry inh
CCC(=C(c1ccc(O)cc1)c1ccc(OCCN(C)C)cc1)c1ccccc1,-6%,-2%
Cc1cccc(CNC(=O)C(=O)Nc2ccccc2C)c1,-8%,1%
COCCC(=O)Nc1ccc2c(c1)CN(C(=O)CCSC)CC2,-7%,0%
COc1ccccc1CNC(=O)CCc1c(C)nc2c(c(C)nn2-c2ccc(C)c(C)c2)c1C,-3%,-4%
Cc1ccc(-c2nnn(CC(=O)N3c4ccccc4CCc4ccccc43)n2)cc1,-6%,0%
CCc1ccc(Cn2nnc(C(=O)Nc3ccc(C)cc3)c2N)cc1,0%,-12%
CN(CC(=O)Nc1ccc(F)cc1)C(=O)c1ccc(OCc2cn3ccccc3n2)cc1,1%,-7%
O=[N+]([O-])c1ccc(C=NN2CCCCCC2)cc1,-12%,0%
O=C1CCCc2ccccc2N1Cc1cccc(F)c1,-6%,-13%
Cc1n(-c2ccccc2)c2ccc(Cl)cc2[n+]1CCO,-13%,-7%
O=C(Nc1cccc([N+](=O)[O-])c1)NN1CCCCCC1,-2%,-13%
COc1ccc(Br)cc1C1Nc2ccccc2C(=O)N1NC(=O)c1ccncc1 (stereo not given),?,·
COc1ccc(-c2nc3ccccc3c(C(=O)Nc3ccc(S(=O)(=O)Nc4cc(C)on4)cc3)c2C)cc1,-21%,·
O=C(Nc1ccccc1)c1ccc2c(O)c(S(=O)(=O)c3ccc(Cl)cc3)c(=O)[nH]c2c1,-5%,-5%
C[C@H](CO)N1C[C@H](C)[C@@H](CN(C)C(=O)Nc2ccccc2)Oc2ccc(NC(=O)Nc3ccc(C(F)(F)F)cc3)cc2C1=O,?,-1%
COc1ccc(C2C(C#N)=C(N)Oc3c2oc(CO)cc3=O)cc1 (stereo not given),-5%,-13%

# Shown field by field: part of the list above
Clc1ccc(-c2cn3cc(Br)ccc3n2)cc1Cl
  VACV Venus inh: -10%
  VACV mCherry inh: 8%
OC1(CN2CCOCC2)C2CC3CC(C2)CC1C3 (stereo not given)
  VACV Venus inh: -8%
  VACV mCherry inh: -14%

# Random excerpt: two entries already listed.
SMILES,VACV Venus inh,VACV mCherry inh
O=[N+]([O-])c1ccc(C=NN2CCCCCC2)cc1,-12%,0%
COc1ccccc1CNC(=O)CCc1c(C)nc2c(c(C)nn2-c2ccc(C)c(C)c2)c1C,-3%,-4%
